High-throughput results as filed in PubChem BioAssay.
Ba CapD inh = Bacillus anthracis CapD inhibitors, primary screen, biochemical, fluorescence intensity; CapD gamma-glutamyltranspeptidase (Bacillus anthracis Ames Ancestor); purified CapD enzyme, fluorescence intensity read-out; active compounds read low; some hits fall short of the stated cut; z-score (no concentration beside the values); 140,000 tested, 0.23% active;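 active = z-score under -4 in either of two replicates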;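 also: stock transfer was 100 nL into about 40 µL; score is relative to mean and spread of the plate; one replicate is shown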
AID504770 = growth inhibition of E. coli YBA685, primary screen, V. cholerae RctB inhibitors; E. coli YBA685 rctB-dependent plasmid, OD600 growth, 3 h; active compounds read low; z-score (no concentration beside the values); 130,000 tested, 0.27% active;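 active = z-score under -2 on both plates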;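 also: wells of about 30 µL received 100 nL stock; score is relative to mean and SD of the test wells; the first replicate is given; strong numbers were not always called active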
* hit, by the source's call; x = no result given; & = joins results of further samples.

SMILES	Ba CapD inh	AID504770
Clc1cccc(CSc2nc(NCc3ccco3)c3ccccc3n2)c1	0.68	x
CN1CCN(C2=NC(=O)/C(=C\c3ccc4c(c3)OCO4)S2)CC1	-0.67	x
CCCN1Cc2cccc(C(=O)NCc3ccccc3)c2C1=O	0.05	-0.3
O=C(Cn1nnc(-c2cccs2)n1)OCc1nc2sc3c(c2c(=O)[nH]1)CCC3	x	0
O=C(CSc1nc(-c2ccccc2)cc(C(F)(F)F)n1)N1CCCCC1	x	0.5
Cc1ccc(S(=O)(=O)Nc2ccc(Cl)cc2C(=O)N2CCN(S(=O)(=O)c3ccc(Cl)cc3)CC2)cc1	0.06	x
O=S(=O)(NCc1cccnc1)c1ccc(I)cc1	-0.01	x
C=CCN(CC=C)C(=O)Nc1ccccc1	0.24	-0.2
O=C(O)c1c2c(nc3ccccc13)CCN(CC(O)c1ccccc1)C2 (centres undefined)	-0.17	x
CNc1oc(COc2ccc(C)cc2)nc1C#N	-0.005	-0.45
Cc1c(CC(Cl)(Cl)Cl)c2c(n1-c1ccccc1[N+](=O)[O-])CCCC2=O	-0.53	x
O=C1C2C3c4ccccc4C(c4ccccc43)C2C(=O)N1c1ccc([N+](=O)[O-])cc1Br (centres undefined)	-1.1	x
Cc1cc(NC(=O)COC(=O)c2ccccc2)no1	x	1.4
O=C(Cn1nc(-c2ccccc2)ccc1=O)NCCN1CCN(c2cccc(Cl)c2)CC1	-0.85	1.9
O=C1Nc2ccc(Br)cc2/C1=N/N1C(=O)C(O)=CC1(O)c1ccccc1 (centres undefined)	-4.1*	0.45
Cc1ccc(C)c2[nH]c(=O)c(C(c3nnnn3C3CCCC3)N3CCCC3)cc12 (centres undefined)	x	1.1
CC1(C)CC(=O)C2=C(C1)Nc1ccc3ccccc3c1C2c1ccc(F)c(Br)c1 (centres undefined)	21	x
CCOc1ccc2c(c1)N(C(=O)C(F)(F)F)C(C)(C)C(=S)C2=C1SC(C(=O)OC)=C(C(=O)OC)S1	0.12	x
COc1ccc(C(=O)OCCN(C2=NS(=O)(=O)c3ccccc32)c2cccc(C)c2)cc1OC	0.49	x
CC1CC(=O)Nc2ccccc2N1S(=O)(=O)c1cccs1 (centres undefined)	0.91	2.5
COc1cc2c(cc1OC)C(CCCCl)=NC(C)(C)C2	1.6	x
COc1ccc(-n2c(=S)[nH]c3cc(C(=O)Nc4ccc(OC)c(OC)c4)ccc3c2=O)c(OC)c1	-0.19	x
COCC(C)NC(=O)c1cc(-c2ccc(OC)c(OC)c2)no1 (centres undefined)	-1.3	-0.2
CCOC(=O)c1sc2nc(COC(=O)c3ccc(OCc4c(C)noc4C)cc3)[nH]c(=O)c2c1C	x	1.6
Cc1ccc(S(=O)(=O)/N=C/c2cccnc2)cc1	-0.12	1.8
SMILES	Ba CapD inh	AID504770
CCOC(=O)C(N)CSC1CC(=O)N(c2ccccc2)C1=O (centres undefined)	0.76	0.45
CCCCOc1c(Cl)cc(CNC(C)(C)CO)cc1OCC	0.055	0.2
CN(C)C(=O)c1ccc(C2SCC(=O)N2CCc2ccccc2)cc1 (centres undefined)	0.065	0.3
CC(C)(C)c1cc(-c2cc(C(F)(F)F)nc(N)n2)c2c(c1)C(C)(C)CC2	2.5	x
COc1ccc(C2=NN3C(C2)c2cc(OC)ccc2OC3c2cccc(Cl)c2)cc1 (centres undefined)	-0.23	x
CC(C)(C)C1C/C(=C/c2ccccn2)C(=O)/C(=C/c2ccccn2)C1 (centres undefined)	0.6	-0.4
NCc1ccc(S(N)(=O)=O)cc1	0.24&1.4	0.05
CN1C(C(=O)N2CCCc3ccccc32)=CC(c2cccs2)=NS1(=O)=O	-1.3	-0.7
CCc1ccc(CN2CCNCC2)cc1	0.51	-0.15
Cc1cc(C)nc(NS(=O)(=O)c2ccc(N=Cc3c(C)[nH]n(-c4ccccc4)c3=O)cc2)n1	-1.4	x
COc1ccc(C2N(c3ccc(C)cc3)CCN2c2ccc(C)cc2)cc1Br	0.085	x
CCN(CC)c1nc(OCC(F)(F)F)nc(N(c2ccccc2)c2ccccc2)n1	x	-0.65
CCN(CC)CCCCCCOC(=O)N1CCN(Cc2cc(OC)c(OC)cc2Br)CC1	0.095	x
CCOc1nc(SC)nc2sc3c(c12)CCN(C)C3	69	-0.75
CC1(C)Cc2[nH]c(=O)c(C(=O)O)cc2CO1	30	-0.35
Cc1ccc(N2C(=O)CSC2/C=C/c2ccccc2)cc1 (centres undefined)	3	-0.75
Cc1ccc(OCC(=O)NCc2ccco2)c(C(C)(C)C)c1	0.42	0.65
O=C(Oc1ccccc1N1CCOCC1)c1ccccc1	-0.55	-0.05
CC1(C)N2CN(CCCCN3CN4N(C3)C4(C)C)CN21 (centres undefined)	-0.12	0.5
CC(=O)Nc1ccc(S(=O)(=O)NCc2ccc3[nH]c4c(c3c2)CCCC4)cc1	0.16	-0.45
COC1=C2C[C@@H](C)C[C@H](OC)[C@H](O)[C@@H](C)/C=C(\C)[C@@H](OC(N)=O)[C@H](OC)/C=C\C=C(/C)C(=O)NC(=CC1=O)C2=O	-0.28	x
Cc1ccccc1/C=N/O	x	-1.7
O=C(NCCSc1c[nH]c2ccccc12)c1ccc(Br)o1	x	0
COc1cc(OC)nc(OC(Cc2cnc3ccccc3n2)c2cccc(C(F)(F)F)c2)n1 (centres undefined)	-0.63	x
Cc1ccc(CCN2CC(C(=O)N3CCC4(CC3)OCCO4)CC2=O)cc1 (centres undefined)	0.14	-0.1
SMILES	Ba CapD inh	AID504770
COc1ccc(NC(=O)CC#N)cc1	x	-0.7
CS(=O)(=O)c1cnc(-c2ccc(C(F)(F)F)nc2)nc1-c1ccccc1	-0.15	x
COCCCNC1CC(=O)N(c2ccc(OC)cc2)C1=O (centres undefined)	x	-0.4
COc1ccc(/C=C2\SC(=S)N(CCC(=O)NN3CCN(C)CC3)C2=O)cc1	-0.19	x
COc1ccc(CCn2c(=O)[nH]c3cc(C(=O)N4CCCCCC4)ccc3c2=O)cc1OC	-0.3	-0.7
Cc1ccc(-c2cn(-c3ccc(C)cc3)c(=N)s2)cc1	x	-0.75
COc1ccc(-c2ncnn2-c2sc3c(c2C#N)CCCC3)cc1	-0.29	1
O=C(Nc1cccc(C(F)(F)F)c1)N1CCC(c2nc(-c3ccncc3)no2)CC1	-0.27	x
CC(=O)Nc1cccc(NC(=O)CCn2c(=O)sc3ccccc32)c1	0.58	0.85
O=C(/C=C/c1ccc2c(c1)OC(F)(F)O2)N1CCc2ccccc21	0.065	x
O=C1CC(/C=C/c2ccccc2)=Nc2ccccc2N1	-0.67	2.1
CS(=O)(=NC(=S)NC(=O)Oc1ccccc1)c1ccccc1 (centres undefined)	-0.29	-0.7
CC(C)N(Cc1ccccc1)C(c1cccs1)c1c(O)[nH]c(=O)[nH]c1=O (centres undefined)	0	-1.2
O=C(COCc1cc(-c2ccc(F)cc2)on1)NC1CCCc2ccccc21 (centres undefined)	0.27	-1.3
COC(=O)C1=C(C)OC(N)=C(C#N)C1c1ccc(OCc2ccccc2)cc1 (centres undefined)	33	x
c1ccc(COc2ccc(C3Oc4ccccc4C4CC(c5cccc6ccccc56)=NN43)cc2)cc1 (centres undefined)	28	x
O=C(CSc1nnc(Nc2ccccc2)s1)c1ccc(S(=O)(=O)N2CCCC2)cc1	x	0.65
COc1cccc(CNC(=O)NCCNC(C)=O)c1	-0.015	x
CC1CCN(C(=O)/C=C/c2c(Cl)nc3sccn23)CC1	-0.97	0.15
CC(=O)NN1C(=O)c2ccccc2NC1c1ccco1 (centres undefined)	87	-1.1
Cc1cc(NC(=O)c2ccccc2C)no1	x	-0.5
Cc1cc2c(ncn2C)c(NS(=O)(=O)c2ccc(C(C)(C)C)cc2)c1C	-0.06	x
Clc1ccc2c(c1)-c1[nH]ncc1CS2	-0.025	0.7
CCOc1ccccc1/C=N/NC(=O)c1ccccc1CCc1ccccc1	-0.58	x
COc1cn(-c2ccccc2)nc1C(=O)Nc1ccc2nc(C)sc2c1	x	-0.45
SMILES	Ba CapD inh	AID504770
COc1ccc(C(=O)Nc2ccc(C(O)(C(F)(F)F)C(F)(F)F)cc2)cc1	0.36	-1.4
O=C1CC(NS(=O)(=O)c2cccnc2)CN1c1ccccc1 (centres undefined)	x	-1
Cn1c(=O)c(=O)n(C)c2cc(S(=O)(=O)N3CCOc4ccccc43)ccc21	0.15	1
Cn1c(SCc2ccon2)nc2ccccc2c1=O	-1	-0.15
Cc1ccc(S(=O)(=O)OCC23CCC(CC2)CC3)cc1	0.41	x
COc1cc2c(cc1OC)C(C)N(C(=O)c1cc(C)on1)CC2 (centres undefined)	3	-0.3
Cc1onc(-c2c(Cl)cccc2Cl)c1C(=O)N(C)C	-0.22	-0.95
CCOCCOC(=O)COc1ccc2c(=O)c(Oc3cc(C)c(Cl)c(C)c3)coc2c1	-0.45	x
CCOC(=O)C1=C(O)/C(=C/c2cccc(OC)c2)SC1=Nc1ccc([N+](=O)[O-])cc1	0.03	x
C=CS(=O)(=O)c1ccc(Oc2ccc(S(=O)(=O)C=C)cc2)cc1	x	-0.35
CC(C)(C)c1cc(-c2ccc(Cl)cc2)c(C#N)c(N)n1	12	-1.4
CCCCNC(=O)N(O)C1N(CCc2ccc(OC)c(OC)c2)C(=S)SC1(C)C (centres undefined)	-0.35	x
CC(C)c1ccc(OCC(=O)Nc2ccccc2C(F)(F)F)cc1	0.12	-0.3
Cn1cccc1CNCC(O)c1ccccc1 (centres undefined)	x	1.4
CCOc1cc(/C=C2/SC(=O)N(c3ccc(Cl)cc3)C2=O)ccc1OCC(=O)O	1.1	x
COc1ccccc1N1CCN(C(=O)c2cc3n(n2)C(C(F)(F)F)CC(c2ccc4c(c2)OCO4)N3)CC1 (centres undefined)	0	x
O=C1NC(=Nc2ccccc2)SC1Cc1cccc2ccccc12 (centres undefined)	-0.43	x
O=C(Cn1nnc(-c2cccnc2)n1)NCC1CCCO1 (centres undefined)	x	-0.9
CC(C)(C)N=C1OC(c2ccccc2)(C(F)(F)F)NC(=S)N1c1ccccc1 (centres undefined)	0.08	0
Cc1ccccc1C(=O)Nc1n[nH]c(C(F)(F)F)n1	-2.1	0.2
CCN(CC)CCn1nc(C)nc1-c1ccccc1O	0.22	-0.3
O=[N+]([O-])c1ccc(-c2nc3ccccc3c3nc4ccccc4n23)cc1	-0.15	x
CCOc1ccc(N2CC(C(=O)Oc3ccc4c(C)cc(=O)oc4c3)CC2=O)cc1 (centres undefined)	x	-3.5
CC(=O)N1c2ccc(NC(=O)c3ccccc3)cc2C(C)(c2ccc(C)cc2)CC1(C)C (centres undefined)	-0.17	x
Cc1ccc(C(=O)CC2(O)C(=O)Nc3ccccc32)o1 (centres undefined)	0.2	-0.95
SMILES	Ba CapD inh	AID504770
COc1ccc(C)cc1S(=O)(=O)N1CCN(C(=O)Cc2ccc(F)c(F)c2)CC1	0.005	x
CC(C)(C)c1cc(C(C)(C)C)n(-c2ccc(C(=O)NNC(=O)c3ccccc3OC(F)(F)F)cc2)n1	3.6	x
O=C1CCSc2ccc(Cl)cc21	-0.005	x
N#CCC(=O)Nc1ccccc1F	0.14	x
CCN1CCN(c2ccc([N+](=O)[O-])cc2C(=O)Nc2ccc(OC(F)(F)F)cc2)CC1	-0.2	x
Cc1cccc(N2CCN(C(=O)/C=C3\Sc4ccccc4NC3=O)CC2)c1C	-0.61	0.55
CC1=C(C#N)C(c2cc(Br)ccc2O)C(C#N)=C(C)N1	15	-0.05
O=C(Cc1ccccc1)c1ccc(Br)cc1	1.3	-0.3
CC(C)n1[nH]c(=O)c2c1NC(=O)CSC2c1ccccc1 (centres undefined)	0.18	-0.35
COc1ccc(-c2nn(-c3ccccc3)cc2CCC(=O)O)cc1	0.51	0.15
CCOC(=O)N1CCN(CC(O)COc2cc(C)c(Cl)c(C)c2)CC1 (centres undefined)	0.17	0.8
O=C(OCc1c(F)cccc1Cl)c1ccc(Cl)cc1	0.075	1.5
NC(=O)C1CCN(C(=O)c2ccc(/C=C3/Oc4ccccc4N(Cc4ccccc4F)C3=O)cc2)CC1	0.1	-0.4

Grouped by structure: the entries above containing a Cl atom.
SMILES	Ba CapD inh	AID504770
Clc1cccc(CSc2nc(NCc3ccco3)c3ccccc3n2)c1	0.68	x
Cc1ccc(S(=O)(=O)Nc2ccc(Cl)cc2C(=O)N2CCN(S(=O)(=O)c3ccc(Cl)cc3)CC2)cc1	0.06	x
Cc1c(CC(Cl)(Cl)Cl)c2c(n1-c1ccccc1[N+](=O)[O-])CCCC2=O	-0.53	x
O=C(Cn1nc(-c2ccccc2)ccc1=O)NCCN1CCN(c2cccc(Cl)c2)CC1	-0.85	1.9
COc1cc2c(cc1OC)C(CCCCl)=NC(C)(C)C2	1.6	x
CCCCOc1c(Cl)cc(CNC(C)(C)CO)cc1OCC	0.055	0.2
COc1ccc(C2=NN3C(C2)c2cc(OC)ccc2OC3c2cccc(Cl)c2)cc1 (centres undefined)	-0.23	x
CC1CCN(C(=O)/C=C/c2c(Cl)nc3sccn23)CC1	-0.97	0.15
Clc1ccc2c(c1)-c1[nH]ncc1CS2	-0.025	0.7
Cc1onc(-c2c(Cl)cccc2Cl)c1C(=O)N(C)C	-0.22	-0.95
CCOCCOC(=O)COc1ccc2c(=O)c(Oc3cc(C)c(Cl)c(C)c3)coc2c1	-0.45	x
CC(C)(C)c1cc(-c2ccc(Cl)cc2)c(C#N)c(N)n1	12	-1.4
CCOc1cc(/C=C2/SC(=O)N(c3ccc(Cl)cc3)C2=O)ccc1OCC(=O)O	1.1	x
O=C1CCSc2ccc(Cl)cc21	-0.005	x
CCOC(=O)N1CCN(CC(O)COc2cc(C)c(Cl)c(C)c2)CC1 (centres undefined)	0.17	0.8
O=C(OCc1c(F)cccc1Cl)c1ccc(Cl)cc1	0.075	1.5

Reformatted with two lines to a compound: part of the list above.
Fields: Ba CapD inh	AID504770
> Cc1cccc(N2CCN(C(=O)/C=C3\Sc4ccccc4NC3=O)CC2)c1C
→ -0.61	0.55
> CC1=C(C#N)C(c2cc(Br)ccc2O)C(C#N)=C(C)N1
→ 15	-0.05

An excerpt (hit frequency here may not be typical).
